# RBBP9 inh – blocks human serine hydrolase RBBP9; recombinant RBBP9, FP-Rh probe fluorescence polarization; inhibition, % at 7.94 µM; hit rate 0.2% among 220,000; AID 1515;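 active = inhibition above the campaign mean of all tested compounds plus 3 SD, cut at about 14% in these data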;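 note: plate controls were DMSO wells with RBBP9 for no effect and wells lacking RBBP9 protein for full effect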
# Target sequence (O75884 whole entry, looked up): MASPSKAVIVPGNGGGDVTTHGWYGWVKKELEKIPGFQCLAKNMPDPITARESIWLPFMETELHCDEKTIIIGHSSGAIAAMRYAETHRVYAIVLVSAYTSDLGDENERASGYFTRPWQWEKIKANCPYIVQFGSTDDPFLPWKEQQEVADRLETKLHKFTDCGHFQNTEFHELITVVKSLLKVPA
#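 system = RBBP9 protein | input = RBBP9 at 2.5 µM in dispensed solution, before mixing | measured by = fluorescence polarization (mP), excitation 525 nm, emission 598 nm | incubation = enzyme-compound preincubation 30 min, then probe labeling 45 min, 25 °C | buffer or medium = Tris-NaCl-Pluronic buffer, pH 8.0 | compound = single dose 7.94 µM | also added = FP-Rh probe, 375 nM dispensing solution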
# CHOP inh – inhibitors of CHOP induction in ER stress response | CHO-K1 CHOP-promoter luciferase, tunicamycin-induced, 15-18 h | inhibition, % at 10 µM | hit rate 3.8% among 220,000;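 active = compounds that reduced the stress-induced luciferase reporter signal by more than about 70% of percent inhibition, limit read from the data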;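 note: 0% = tunicamycin plus vehicle and 100% = wells without tunicamycin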
# TRPML3 agonist – human mucolipin-3 channel agonism. Q8TDD5. HEK293 TRPML3-YFP, Fluo-8 calcium fluorescence; 100% = the carbachol control signal. activation, % at 3 µM. hit rate 0.29% among 220,000. AID 1448;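 active = activation above its plate's cutoff, the mean activation of the plate's test wells plus 3 SD, cut at about 12% in these data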;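 note: 0% = DMSO only wells and 100% = carbachol wells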
#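 Test system: HEK293 cells stably carrying human TRPML3-YFP; Doses: single dose, 3 µM final nominal compound, 0.3% DMSO final; Schedule: dye loading 1 h 37 °C then 30 min ambient, 125 s read; Technique: Fluo-8 calcium fluorescence; Benchmarks: high control carbachol 87 µM, low control DMSO.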
# TNF necrop inh – TNF-alpha cell death inhibition in Jurkat FADD-/- cells; Jurkat FADD-/- TNF necroptosis rescue, ATP luminescence, 24 h; 0 = TNF only, 100 = no-TNF cells; activation (protection from cell death), % at 10 µM; hit rate 0.068% among 220,000; AID 463075;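 active = activation, meaning protection from cell death, of at least 50% relative to plate controls; inactive = activation below 50%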;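 note: necroptosis triggered by 40 ng/mL TNF-alpha added together with compound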
# zfTRPN1 agonist – activates the zebrafish TRPN1 channel; activation, % at 3 µM; HEK293 zebrafish TRPN1-YFP, Fluo-8 calcium fluorescence; 100% = response to 87 µM carbachol; hit rate 0.18% among 220,000;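 active = activation above its plate's cutoff, the mean activation of test wells on that plate plus 3 SD, cut at about 19% in these data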;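 note: 0% = DMSO alone and 100% = 87 µM carbachol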
#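 Assay system: Zebrafish TRPN1-YFP in HEK293 cells | Incubation: Dye loading 1 h at 37 °C, then 30 min room temperature | Measured by: Kinetic Fluo-8 fluorescence, ex 470-495, em 515-575 nm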
# Starred values were filed as active, the others as inactive; · = not tested or not shown; & = joins results of further samples.
# The first 5 records as a preview:
cpd	compound	RBBP9 inh	CHOP inh	TRPML3 agonist	TNF necrop inh	zfTRPN1 agonist
1	COCCn1c(C)cc(C(=O)COC(=O)c2cccc(O)c2)c1C	-4	62	1.1	-2.2	2.0
2	COc1cc(S(=O)(=O)n2c(C)nc3ccccc32)ccc1F	-6	43	0.7	-6.8	0.8
3	Cc1ccc2c(CC(=O)N3CCN(S(=O)(=O)c4ccc5c(c4)OCCO5)CC3)coc2c1	-5	64	0.1	-2.4	-0.3
4	COc1ccccc1NC(=O)Nc1ccc2c(c1)nc(C)n2C	-10	-8	0.6	-2.7	1.0
5	CCNC(=O)C1CC(=O)N(CC)C(=Nc2cc(Cl)c(O)c(Cl)c2)S1 (centres undefined)	1	5	0.7	-2.3	0.9

# Results, from the first entry:
cpd	compound	RBBP9 inh	CHOP inh	TRPML3 agonist	TNF necrop inh	zfTRPN1 agonist
1	COCCn1c(C)cc(C(=O)COC(=O)c2cccc(O)c2)c1C	-4	62	1.1	-2.2	2.0
2	COc1cc(S(=O)(=O)n2c(C)nc3ccccc32)ccc1F	-6	43	0.7	-6.8	0.8
3	Cc1ccc2c(CC(=O)N3CCN(S(=O)(=O)c4ccc5c(c4)OCCO5)CC3)coc2c1	-5	64	0.1	-2.4	-0.3
4	COc1ccccc1NC(=O)Nc1ccc2c(c1)nc(C)n2C	-10	-8	0.6	-2.7	1.0
5	CCNC(=O)C1CC(=O)N(CC)C(=Nc2cc(Cl)c(O)c(Cl)c2)S1 (centres undefined)	1	5	0.7	-2.3	0.9
6	O=C(O)Cn1nc(C(F)(F)F)c2c1CCCCC2	-1	-27	-0.5	1.5	0.3
7	Cn1ncc(Br)c1C(=O)O	3	-11	0.4	1.4	-0.1
8	COc1cc(Cc2cnc(N)nc2N)cc(OC)c1OC	-6&-5	2&0&9	0.0&1.1	-11&0.8	-0.7&0.8

# Single records (already shown). Screens in order: RBBP9 inh	CHOP inh	TRPML3 agonist	TNF necrop inh	zfTRPN1 agonist
# Record of COc1ccccc1NC(=O)Nc1ccc2c(c1)nc(C)n2C = -10	-8	0.6	-2.7	1.0
# Record of Cn1ncc(Br)c1C(=O)O = 3	-11	0.4	1.4	-0.1
# Record of O=C(O)Cn1nc(C(F)(F)F)c2c1CCCCC2 = -1	-27	-0.5	1.5	0.3
# Record of COCCn1c(C)cc(C(=O)COC(=O)c2cccc(O)c2)c1C = -4	62	1.1	-2.2	2.0

# Later entries.
cpd	compound	RBBP9 inh	CHOP inh	TRPML3 agonist	TNF necrop inh	zfTRPN1 agonist
9	O=c1oc2ccccc2cc1-c1cn2ccccc2n1	-5	95*	-0.1	-7.9	0.6
10	N#Cc1ccccc1CSc1nc(O)cc(=O)[nH]1	2	3	0.4	-1.4	-0.1
11	Cc1ccc(-c2cn3cc([N+](=O)[O-])ccc3n2)cc1	8	55	-0.2	-0.5	-3.1
12	CC(C(=O)O)c1cccc(C(=O)c2ccccc2)c1 (centres undefined)	-3	6&25&36	0.9	1.3	-0.6
13	Cc1nc(-c2ccc(C(=O)Nc3ccccc3F)cc2)cs1	9	33	1.6	-4.3	7.4
14	COc1ccc(/C(N)=N/OC(=O)CSc2ccccc2)cc1	1	-29	0.0	0.9	-1.3
15	CC(C)NCC(O)COc1cccc2[nH]ccc12 (centres undefined)	3	-8&3	0.9	·	0.7
16	COc1ccc(-c2nc3ccccc3s2)cc1	2	62	0.9	-3.5	0.8

# Sorted by the number under RBBP9 inh (descending): 3 from the list above.
cpd | smiles | RBBP9 inh | CHOP inh | TRPML3 agonist
11 | Cc1ccc(-c2cn3cc([N+](=O)[O-])ccc3n2)cc1 | 8 | 55 | -0.2
15 | CC(C)NCC(O)COc1cccc2[nH]ccc12 (centres undefined) | 3 | -8&3 | 0.9
4 | COc1ccccc1NC(=O)Nc1ccc2c(c1)nc(C)n2C | -10 | -8 | 0.6

# An excerpt; rates above refer to the full screens.
